Screens: PubChem, several laboratories
LANA-H2A inh – blockers of LANA interaction with H2A/H2B – biochemical, FP readout, HTS, primary screen | AID 2629, 2010 | inhibition, % (no concentration beside the values) | cell-free LANA-H2A/H2B peptide, fluorescence polarization | 320,000 tested, 0.6% active | Protein LANA1 (Human herpesvirus 8 type P (isolate GK18)), Q9QR71; in the data active means inhibition mostly above about 10%, no sharp cut-off; inactive means mostly below about 6.7%;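 further: stock transfer was 7.5 nL into about 10 µL; 0% = median of vehicle wells and 100% = median of positive control wells; one replicate is shown; the record names a cut of 25% in any replicate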
Target sequence (Q9QR71 whole entry, looked up): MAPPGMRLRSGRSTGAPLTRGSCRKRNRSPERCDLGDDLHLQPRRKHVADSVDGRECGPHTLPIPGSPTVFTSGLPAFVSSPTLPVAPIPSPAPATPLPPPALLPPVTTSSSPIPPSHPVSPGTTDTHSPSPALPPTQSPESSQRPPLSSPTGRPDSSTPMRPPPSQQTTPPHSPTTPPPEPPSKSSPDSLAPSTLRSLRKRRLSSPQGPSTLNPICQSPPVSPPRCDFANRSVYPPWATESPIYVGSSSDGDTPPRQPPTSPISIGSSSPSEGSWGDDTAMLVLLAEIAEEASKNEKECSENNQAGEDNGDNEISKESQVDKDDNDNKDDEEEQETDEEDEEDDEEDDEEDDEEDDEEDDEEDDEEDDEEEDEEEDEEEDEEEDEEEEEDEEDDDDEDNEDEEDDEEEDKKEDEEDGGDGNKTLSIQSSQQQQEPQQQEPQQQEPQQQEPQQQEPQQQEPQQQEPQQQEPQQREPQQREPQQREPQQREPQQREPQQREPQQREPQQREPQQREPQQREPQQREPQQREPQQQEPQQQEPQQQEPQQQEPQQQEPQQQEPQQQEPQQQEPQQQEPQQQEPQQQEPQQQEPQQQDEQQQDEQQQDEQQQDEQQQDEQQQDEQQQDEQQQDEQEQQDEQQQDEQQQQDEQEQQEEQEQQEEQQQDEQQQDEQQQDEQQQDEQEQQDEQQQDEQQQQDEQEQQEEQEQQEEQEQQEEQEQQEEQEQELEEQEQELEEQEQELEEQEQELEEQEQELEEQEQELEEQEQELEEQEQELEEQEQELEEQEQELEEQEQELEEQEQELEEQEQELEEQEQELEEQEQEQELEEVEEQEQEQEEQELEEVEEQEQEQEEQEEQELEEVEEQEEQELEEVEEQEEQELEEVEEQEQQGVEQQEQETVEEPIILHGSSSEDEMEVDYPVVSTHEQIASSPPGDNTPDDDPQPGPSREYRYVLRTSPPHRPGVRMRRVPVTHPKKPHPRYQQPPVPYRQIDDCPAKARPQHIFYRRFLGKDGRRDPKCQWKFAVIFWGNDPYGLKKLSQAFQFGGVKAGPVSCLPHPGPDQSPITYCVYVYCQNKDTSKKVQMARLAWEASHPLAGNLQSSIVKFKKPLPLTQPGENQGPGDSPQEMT
RanGTP-Impb inh – inhibitors of RanGTP-importin-beta interaction, primary screen, biochemical, FRET, CFP-Ran, YFP-importin-beta, homogeneous | Ran GTPase (GTP-bound) - importin-beta complex | cell-free CFP-Ran/YFP-importin-beta FRET ratio | inhibition, % (test concentration not listed) | 300,000 tested, 1.1% active;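 active means most replicates above 15%; inconclusive means exactly half above 15%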;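 further: 0% = DMSO wells and 100% = Ran loaded with GDP instead of GTP; wells of about 40 µL received 100 nL stock; the first replicate is given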
HNF4A DNA FP – change in binding of human HNF4A to DNA, primary screen, biochemical, fluorescence polarization, FITC-DNA; Hepatocyte nuclear factor 4-alpha (Homo sapiens), P41235; 1 h; 360,000 tested, 0.3% active; AID 1224865, 2016; activity change, % at 10 µM; in the data active means activity change above about 30%, passing the limit was not always enough;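 further: controls were the assay level and a saturating level of protein; the project sought stronger binding though the title names inhibitors; some compounds called inactive have numbers as strong as hits; positive values seem to mean higher polarization but the record does not say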
Calb FLC – C. albicans growth inhibition with fluconazole, primary screen, CaCi-2 strain, Alamar Blue fluorescence | C. albicans CaCi-2 (fluconazole-resistant clinical isolate) + fluconazole, 48 h | growth inhibition, % (no concentration beside the values) | 300,000 tested, 0.57% active | AID 1979, 2009;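 active means most replicates above 75%; inconclusive means exactly half above 75%; inactive means most below 75%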;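 further: all wells also contain fluconazole at 8 µg/ml as a sub-toxic cotreatment; 0% = median of DMSO wells and 100% = median of geldanamycin control wells; wells of about 8 µL received 7.5 nL stock; the first replicate is given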
Vif A3G – inhibitors of Vif binding to APOBEC3G peptide, primary screen, biochemical, TR-FRET, GST-Vif 1-94, biotin-A3G peptide, dose response retest (AID 1117319). 260,000 tested, 0.57% active. inhibition, %; hits with a dose series show IC50 in µM. TR-FRET GST-Vif / biotin-A3G peptide binding; higher % means a stronger effect; test concentration not given here; strong numbers were not always called active. Virion infectivity factor (Human immunodeficiency virus type 1 group M subtype B (isolate …;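 active means above the screen mean plus three standard deviations and confirmed in dose response; inconclusive means results disagree or hit not tested in dose response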;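 further: Vif residues 1-94 fused to GST binding biotinylated APOBEC3G peptide 110-148; 0% = full assay without inhibitor and 100% = GST in place of GST-Vif; retest series ran down from 100 µM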
B2AR ag – beta2AR agonists driving receptor internalization, primary screen, cell-based, FAP fluorogen, flow cytometry | AID 504454, 2011 | Am2.2-beta2AR cells; reference of the scale not given here | response, % (concentration not given with the values) | Beta-2 adrenergic receptor (Homo sapiens), P07550 | 340,000 tested, 0.43% active;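 active means response above a set limit, near 3 SD of response in nonfluorescent compounds, cut at about 42% in these data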;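 further: stock transfer was 100 nL into about 11 µL; a reference agonist was the positive control; negative values mostly stem from fluorescent compounds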
ALR inh – inhibitors of human ALR sulfhydryl oxidase, primary screen, biochemical, H2O2 detection, HRP-luminol luminescence, single point | purified ALR, DTT oxidation | AID 485317, 2010 | inhibition, % (test concentration not listed) | 290,000 tested, 3.8% active;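 active means mean and each replicate at 75% or more; inconclusive means only one of the two met; inactive means neither met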;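 further: stock transfer was 7.5 nL into about 7.5 µL; 0% = neutral wells and 100% = wells with inactivated enzyme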
* marks the source's active call; other numbers are inactive results; ? = inconclusive; nt = no result given.

SMILES	LANA-H2A inh	RanGTP-Impb inh	HNF4A DNA FP	Calb FLC	Vif A3G	B2AR ag	ALR inh
COc1ccc(-c2csc(NC(=O)c3ccccc3F)n2)cc1	-0.1	2.1	3.3	4	-12%	8	35
Cc1ncc([N+](=O)[O-])n1Cc1cccc(F)c1	-1.6	25	1.1	0	-4%	-2	27
Cc1ccc(CN2C(=O)CNC2=S)cc1	-1.4	0.4	4.7	7	-5%	0	69
CCOCC(=O)N1CCCC(C(=O)OCC)C1 (configuration not stated)	-0.4	0.9	0.2	-8	-1%	-4	-2
COc1ccc(S(=O)(=O)N2CCCCC2)cc1NC(=S)Nc1ccccc1	-4.0	1.3	-2.8	-2	nt	6	-4
COc1cccc(/C=N/Nc2nnc(C)n2N)c1O	4.0	-5.4	-0.9	16	11%	3	54
Cc1cccc(N2CCN(S(=O)(=O)c3ccc4c(c3)n(C)c(=O)c(=O)n4C)CC2C)c1 (configuration not stated)	3.3	0.3	-2.1	-2	-2%	2	9
CCOc1ccc(NC(=O)N(CCC(C)C)C(C)c2ccco2)cc1 (configuration not stated)	2.8	0.2	0.5	-8	-9%	-5	-6
O=C(NCC1CCCO1)c1cccc(S(=O)(=O)Nc2ccc(SC(F)F)cc2)c1 (configuration not stated)	-4.9	nt	6.9	nt	-10%	1	98*
CCCCN(C(=O)CC1CCCC1)c1c(N)n(CCCC)c(=O)[nH]c1=O	-1.0	nt	1.1	nt	5%	-4	nt
CCOc1ccc(S(=O)(=O)N(CC(=O)N2CCc3ccccc32)Cc2ccco2)cc1	1.6	?	1.0	-2	13%	0	-1
O=C(c1cc(-c2ccccc2Cl)nc2ccccc12)N1CCC1	-2.2	-1.3	2.0	23	2%	-2	nt
CCN(CC)S(=O)(=O)c1ccc(N2CCOCC2)c(NS(=O)(=O)c2ccc(C(C)C)cc2)c1	1.4	1.6	2.0	28	nt	-2	nt
CN1C/C(=C/c2cccnc2)C(=O)/C(=C/c2cccnc2)C1	-0.9	nt	-0.1	nt	-4%	43*	3
O=C(N/N=C\c1cc(Br)cs1)c1ccncc1	-1.7	-2.4	4.5	5	?	3	14
CC(C)n1c(N2CCN(C(=O)Nc3ccc(Cl)cc3)CC2)nc2ccccc21	1.3	-2.6	2.6	73*	nt	2	-2
C[C@H](NC(=O)NC1CCCc2ccccc21)C(=O)O (some centres not stated)	0.7	?	1.9	19	-8%	-4	-1
Cc1ccccc1CCNC(=O)CCn1ccc2cc(S(=O)(=O)N3CCCC3)ccc21	-5.2	3.8	3.4	6	nt	6	2
Nc1c(S(=O)(=O)c2cccs2)c2nc3ccccc3nc2n1Cc1cccs1	6.6	?	1.2	-1	-12%	8	-5
Nc1c(C(=O)c2ccccc2)sc2nsc(SCCN3CCOCC3)c12	-3.4	-78	34	-4	29%	11	14
COC(=O)C1C2C=CC(C3CC23)C1C(=O)OCC(=O)c1ccccc1 (configuration not stated)	-2.8	-2.1	0.2	-14	-1%	5	1
CC(=O)N1CCN(C(=O)COc2ccccc2C(=O)Nc2ccccc2)CC1	1.2	2.8	3.3	-3	nt	-12	8
CN(NC(=O)c1ccco1)c1nc2ccccc2nc1C(F)(F)F	1.7	-2.0	-1.3	-35	-5%	-2	-14
O=C(Nc1ccc(F)cc1)Nc1cccnc1Cl	0.7	2.3	-2.3	-8	4%	-2	-5
O=C(NC(NCc1cccnc1)C(Cl)(Cl)Cl)c1cccc2ccccc12 (configuration not stated)	-4.9	0.1	-5.6	-35	nt	-1	0
Cc1ccc(C(=O)N/N=C\c2ccc[nH]2)cc1[N+](=O)[O-]	-2.0	-1.7	-0.5	4	0%	9	-4
CCC1C(=O)NCCN1C(=O)c1ccccc1OC1CCN(S(C)(=O)=O)CC1 (configuration not stated)	8.3	-0.7	0.2	-9	-7%	-7	-26
CCOc1ccc(Br)cc1S(=O)(=O)NCCN1CCCC1	4.5	1.2	2.0	nt	-2%	0	-5
CC(C)[C@H](NS(=O)(=O)c1ccc2c(c1)OCCO2)C(=O)OCC(=O)Nc1ccccc1Cl	13	-1.1	-1.5	-20	nt	-2	-32
COc1ccc2cc(/C=N/NC(=O)c3c(Cl)cnn3C)c(Cl)nc2c1	-4.2	8.2	3.6	-17	?	3	6
CCCc1nc2ccc(NC(=O)NCCC(=O)OCC)cc2c(=O)n1Cc1ccc(Cl)cc1	-8.4	-1.4	-1.7	-1	-46%	0	0
COc1ccc(-c2cc(C)no2)cc1S(=O)(=O)NCCCN1CCCCCC1	-5.1	?	-1.5	-7	nt	-3	0
Cc1cccc(N2CC(C(=O)Nc3nnc(SCC(=O)N4CCOCC4)s3)CC2=O)c1 (configuration not stated)	-2.6	2.8	0.6	3	nt	9	-18
O=C(NCCN1CCOCC1)c1ccccc1[N+](=O)[O-]	1.8	-3.8	0.0	-4	-1%	-10	5
COc1cc(OC)cc(C(=O)NNC(=S)NCc2ccco2)c1	-0.2	-0.2	-0.6	-1	-4%	6	10
CCC1=C(OC(=O)N(CC)CC)N2C(=O)OC(=NCC(=O)OC)[C@]2(Cc2ccccc2)[C@H]2C1=CC[C@H]1C(=O)N(CC(=O)OC)C(=O)[C@H]12	0.4	?	-0.3	32	nt	2	-11
Cc1c(C)n(CCCN(C)C)c2ncnc(Nc3ccc(F)cc3)c12	0.0	2.2	0.9	7	-9%	-7	8
Nc1ccn(Cc2cccc(Cl)c2)n1	-2.7	3.1	2.5	2	0%	-4	-2
Cc1ccc(NCc2ccc(O)c3ncccc23)cc1C	-2.1	1.0	-18	65*	1%	2	-29
CC1CCN(S(=O)(=O)N2CCC(C(=O)NCCc3ccccc3)CC2)CC1	2.7	1.3	-1.1	-16	nt	1	2
CCCNC(=O)CSC1=N/C(=C/c2ccc(F)cc2)C(=O)N1CC	-1.8	2.8	0.8	9	-8%	-2	97*
COC(CNS(=O)(=O)c1ccc(S(=O)(=O)N2CCCC2)cc1)OC	-4.7	0.7	-0.5	-22	nt	2	-4
C=CC[C@@H](Cc1ccc(F)cc1)C(=O)OC[C@H]1CCCN1C(=O)[C@H](CC=C)CC(=O)NCCO	1.6	nt	3.6	nt	nt	-1	-7
COc1ccc(/C=N/NC(=O)CNS(=O)(=O)c2ccccc2)cc1	9.6	nt	-2.5	nt	22%	2	nt
Cc1cc(-c2ccn[nH]2)c(C)s1	-0.4	1.0	7.1	0	-9%	-1	nt
O=S(=O)(c1cccc2ccccc12)N1CCC2CC1c1cc(-c3ccc(F)cc3)ccc12 (configuration not stated)	nt	nt	-3.0	nt	-2%	-18	nt
O=C1NCCCC1C(=O)N/N=C/c1cccc(Cl)c1 (configuration not stated)	1.3	1.0	-0.3	-11	nt	5	1
Cc1nnc(Nc2ccc3c(c2)OCO3)c2ccccc12	5.5	0.5	-1.0	3	3%	-10	88*
CC(=O)Oc1ccc2nc(-c3ccc(Br)o3)oc(=O)c2c1	2.3	-1.1	1.9	3	1%	10	80*
COc1nc(-c2ccccc2)c2cc(Br)ccc2n1	0.8	3.9	0.0	-1	nt	-6	-22
O=C(Nc1c[nH]c(=O)[nH]c1=O)c1ccccc1Cl	1.3	-1.7	-1.9	1	nt	0	-4
O=C(NNC(=O)c1ccc(-c2ccccc2)cc1)c1ccccc1	-0.4	-2.8	-1.8	-1	nt	3	-19
Cc1cccc(N2CCN(C(=O)c3ccc(CNc4c(N5CCC(C)CC5)c(=O)c4=O)cc3)CC2C)c1 (configuration not stated)	5.8	-2.4	-0.1	?	-2%	-7	19
COc1ccc(NC(=O)C2=CCN(S(=O)(=O)c3ccccc3)CC2)cc1OC	2.7	-1.4	-1.6	-8	nt	2	-7
Cc1nn(CC(C)C(=O)N2CCN(S(=O)(=O)c3ccc(Cl)cc3)CC2)c(C)c1C (configuration not stated)	-1.8	?	-2.8	0	nt	14	44
CCN(CC)C(=O)c1cccc(NC(=O)c2cc(-c3ccccn3)nc3ccccc23)c1	1.6	nt	-6.8	nt	nt	15	12
CCn1c(C)c2c([n+]1CC)CC(C)(C)CC2=O	0.0	0.7	-0.9	9	-2%	3	-7
C=CCC1(Cl)C(=O)C(Cl)=C(N2CCN(C)CC2)C1(OC)OC (configuration not stated)	0.4	2.7	2.2	1	28%	-3	-11
O=C(NCCN1CCOCC1)c1cc(-c2ccccc2)on1	2.3	-2.9	-2.1	-3	17%	8	-9
CN1CCc2c(C#N)c(N3CCCCC3)nc(N3CCOCC3)c2C1	0.6	0.1	nt	?	nt	nt	0

Continuation:
SMILES	LANA-H2A inh	RanGTP-Impb inh	HNF4A DNA FP	Calb FLC	Vif A3G	B2AR ag	ALR inh
CNC(=O)c1c(N)sc2c1CCCCC2	0.8	2.8	nt	-9	?	nt	-55
O=C1CN(C(=O)c2ccccc2)C(c2ccccc2)c2cc(F)ccc2N1 (configuration not stated)	-0.7	-1.2	2.1	-6	-6%	-4	-2
CCN(CC)C(=O)c1ccc2nc(-c3ccccc3)c(-c3ccccc3)nc2c1	-0.6	1.6	0.7	3	-2%	-11	-5
O=C(CNC(=O)c1ccc(Cl)cc1Cl)NCC(=O)Nc1ccccc1N1CCOCC1	-1.9	3.0	2.7	1	8%	0	nt
OCC[C@H]1C[C@@H](O)[C@H](O)[C@]2(Cc3ccccc3O2)O1	-5.8	nt	2.1	nt	nt	-6	nt
CC1(OC(=O)CCc2ccccc2)C(=O)C=C2C=C(c3ccc(C#N)cc3)N(Cc3ccco3)C=C2C1=O (configuration not stated)	0.9	2.4	-4.9	0	nt	-3	-18
Cc1cc(C(=O)CN2C(=O)NC3(CCCCCC3)C2=O)c(C)n1C	nt	nt	-3.4	nt	-2%	-2	nt
CCOc1ccc(NC(=O)C2CCC(CNc3c(N4CCC(C)CC4)c(=O)c3=O)CC2)cc1 (configuration not stated)	2.5	0.4	1.7	-3	?	-14	0
O=C(/C=C/c1ccccc1)N1CCN(C(=O)c2ccco2)CC1	-2.2	6.4	0.3	1	5%	-11	-7
CCOC(=O)c1ccc(NC(=S)NCc2cccnc2)cc1	1.4	nt	0.3	-20	3%	-7	0
O=C(Nc1ccc(Br)cc1Cl)c1ccc2c(=O)n3c(nc2c1)CCC3	-0.5	?	-0.2	20	-15%	-1	0
Cc1nn2c(CN(C(=O)COc3ccccc3)c3ccccc3)nnc2c2ccccc12	nt	-3.9	0.6	-25	-9%	6	nt
CN(C(=O)CSc1cccc[n+]1[O-])C1CCCCC1	-1.8	nt	-2.3	nt	nt	-4	-8
O=C(O)c1cccnc1SC1CC(=O)N(Cc2ccccc2)C1=O (configuration not stated)	0.6	0.6	-0.6	10	1%	-3	-3
CCC(C)N1C(=O)CCC1C(=O)N1CCN(c2ccccc2F)CC1 (configuration not stated)	3.6	5.0	-1.9	-4	6%	-1	9
COc1ccc(C2N3CC4(C)CN2CC(C)(C3)C4)cc1OC (configuration not stated)	6.4*	?	2.5	2	21%	15	nt
C=CCNC(=O)CCCCC(=O)NCC=C	-3.9	-1.8	3.0	-5	0%	-1	-2
COc1ccc(NC(=O)CN(C)C(=O)c2ccccc2OC)cc1	-0.6	-1.8	4.4	-2	-2%	3	-2

Reprinted at random: 2 records from the list, in no set order.
SMILES	LANA-H2A inh	RanGTP-Impb inh	HNF4A DNA FP	Calb FLC	Vif A3G	B2AR ag	ALR inh
O=C(O)c1cccnc1SC1CC(=O)N(Cc2ccccc2)C1=O (configuration not stated)	0.6	0.6	-0.6	10	1%	-3	-3
COc1ccc(NC(=O)CN(C)C(=O)c2ccccc2OC)cc1	-0.6	-1.8	4.4	-2	-2%	3	-2
